Screening data deposited in PubChem BioAssay by Fisher Drug Discovery Resource Center.
NPYLR7 agonist = agonists of mosquito NPYLR7 receptor, primary screen, cell-based, Aedes aegypti, calcium fluorescence, mosquito biting behavior | activation, % at 10 µM | Aedes aegypti neuropeptide Y-like receptor 7 (NPYLR7) | 270,000 tested, 0.15% active | HEK293T NPYLR7/Galpha15, GCaMP6s calcium fluorescence | AID 1259423, 2018; in the data active means activation above about 40%;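 further: 0% = vehicle and 100% = reference agonist at the receptor; some compounds past the cut are filed as inactive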
NPYLR7 agonist max-min = also measured in NPYLR7 agonist; calls as there; activation, %; measured here: Max-Min RFU normalised activation; some inactives read as strong as hits;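 span of the calcium signal over five minutes; 0% = vehicle and 100% = native peptide agonist; compound fluorescence can raise it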
The depositor's hits bear a star; & = joins results of further samples. These rows are one share of the data. The share of hits here may be higher or lower than overall.

SMILES | NPYLR7 agonist | NPYLR7 agonist max-min
COC(=O)CCC(C)C1CCC2C3CC[C@@H]4C[C@H](O)CC[C@]4(C)C3C[C@H](O)[C@]12C (stereo partly specified) | -9 | -10
CC1CN(C(=O)CCN2CCc3sccc3C2c2cccc(F)c2)CCN1C(=O)c1cccc(Br)c1 (stereo unspecified) | 7 | -3
O=C(Cn1ccc2ccccc2c1=O)Nc1ccc2c(c1)OCCO2 | -14 | -8
O=C(NCc1cccnc1)C1CCN(C2CCN(Cc3c(F)ccc(F)c3F)CC2)CC1 | 5 | 1
COCCNC(=O)CCN(CCc1ccccc1)c1nc(-c2ccc(OC)cc2)nc2ccccc12 | 9 | 20
CCSCCNC(=O)c1c(C)noc1-c1ccccc1Cl | 27 | 13
COc1cccc(C2Nc3ccccc3N=C3CC(c4ccc(Cl)cc4)CC(=O)C32)c1OC (stereo unspecified) | -8 | -10
Cc1ccccc1CN(Cc1ccccc1)Cc1nc(C(=O)NCCN(C)C)co1 | 4 | -3
O=C(c1ccc(F)cc1C(F)(F)F)N1CCN(c2nccc(-c3cccc(C(F)(F)F)c3)n2)CC1 | 17 | 25
O=C(COc1ccccc1Cl)N1CCCC(Nc2ccc3c(c2)OCCO3)C1 (stereo unspecified) | 18 | 7
Cc1cc2c(o1)CC(C)(C)CC2NS(=O)(=O)CCc1ccccc1 (stereo unspecified) | 4 | 2
Cc1ccnc(SCc2cc(=O)c(OC(=O)c3ccccc3C(F)(F)F)co2)n1 | -9 | 2
CN(c1ccccc1)S(=O)(=O)c1cccc(NC(=O)COc2cccc(N3CCCC3=O)c2)c1 | 3 | 18
CCC1SC(c2ccccc2C)N(CCNC)C1=O (stereo unspecified) | 1 | -5
Cc1ccc(-n2ccnc(NCC(C)c3ccccc3)c2=O)cc1C (stereo unspecified) | 4 | -3

Looked up above.
In NPYLR7 agonist max-min, `CCSCCNC(=O)c1c(C)noc1-c1ccccc1Cl` has the entry 13
In NPYLR7 agonist max-min, `O=C(COc1ccccc1Cl)N1CCCC(Nc2ccc3c(c2)OCCO3)C1` (stereo unspecified) has the entry 7

Following part.
SMILES | NPYLR7 agonist | NPYLR7 agonist max-min
COCc1cc(NCc2cccnc2N2CCCCCCC2)ncn1 | -4 | -5
CN(C)CCCNC(=O)c1cccnc1Oc1ccc(Br)cc1F | 3 | 4
O=C(c1ccccc1O)N1C[C@@H]2C3CCC(CC3)[C@@H]2C1 | -7 | -9
COc1ccccc1-c1ccc2ccccc2n1 | -3 | -6
COc1coc(C(=O)Nc2ccc(C(N)=O)cc2)cc1=O | 15 | 8
CCc1c(C)c(C(=O)Nc2cccc(C)c2)n(Cc2cccc(OC)c2)c1C | 27 | 33
Cc1cc(C)c(N=Nc2c(-c3ccc([N+](=O)[O-])cc3)[nH]n(-c3ccccc3)c2=O)c(C)c1 | -4 | -9
O=C(NCCn1ncc2c(N3CCCC3)ncnc21)c1cccc(C(F)(F)F)c1 | 0 | -2
COCCN(CC1CC1)C(=O)c1cc(NC(C)=O)ccc1Cl | 0 | 1
O=C(CN1C(=O)S/C(=C\c2ccccc2)C1=O)NNC(=O)c1ccncc1 | -8 | -6
O=C(NCCNc1cccc2ccccc12)C1CCCCC1C(=O)N1CCc2c([nH]c3ccccc23)C1 (stereo unspecified) | -11 | -15
Cc1cccc(C2c3[nH]c4ccccc4c3CCN2C(=O)C2=CCCC2)n1 (stereo unspecified) | 12&-9 | -2&-16
OCc1ccc(CN2CCc3[nH]nc(C(c4ccccc4)c4ccccc4)c3C2)o1 | 4 | 2
CC(C)c1nc(CCN(C)S(C)(=O)=O)n(-c2ccc3c(c2)OCCO3)n1 | 14 | 10
CCOC(=O)C1CCCN(C(=O)c2cccc(Nc3c(Oc4ccc(Cl)cc4)cnn(-c4ccc(OC)cc4)c3=O)c2)C1 (stereo unspecified) | 6 | 6
CCN(CC)CCCNC(=O)C(C)n1nc(C)n2c(cc3occc32)c1=O (stereo unspecified) | 7 | 2
Cc1ccccc1Oc1cc(N2CCCCC2)ncn1 | -9 | -6
Cc1nc(-c2ccccc2)nc(N2CCN(C(=O)c3ccco3)CC2)c1Cc1c(F)cccc1Cl | 1 | 8
O=C(O)c1cccc(NS(=O)(=O)c2ccc(F)cc2Cl)c1 | 2 | 2
COCCCN1C(=O)CC(Nc2ccc(N(C)C)cc2)C1=O (stereo unspecified) | 0 | 6
O=C(Cn1c(=O)[nH]c2c(-c3ccccc3F)c[nH]c2c1=O)NCCCc1ccccc1 | -3 | -3
COc1ccc(OC)c(N2C3=[N+](CCCS3)CC2(O)c2ccc(C)cc2)c1 (stereo unspecified) | 6&4 | 2&2
COc1cccc(CNC(=O)CNC(=O)C2CC2(c2ccccc2)c2ccccc2)c1 (stereo unspecified) | -19 | -27
COc1cc(NC(=O)Nc2nc3c(s2)-c2cccc4cccc-3c24)cc(OC)c1OC | 2 | 2
Cc1ccc(SCC(=O)N(CCC#N)c2ccccc2)c(C)c1 | 6 | 3
CC1(C(=O)NS(=O)(=O)c2ccc(C#N)cc2)CCN1C(=O)Cc1cc(F)ccc1F (stereo unspecified) | 5 | 3
CCn1cc(-c2c(-c3ccccc3)ncn2Cc2c(C)noc2C)cn1 | -2 | -3
CC(=O)N1CCN(C(=S)NC(=O)C23CC4CC(CC(C4)C2)C3)CC1 | -2 | -3
CN(CCc1ccccc1)C(=O)c1cccc2[nH]c(-c3ccccc3)nc12 | -2 | -2
O=C(NCC(=O)N1CCN(c2ccccc2)CC1)c1sccc1C1CC1 | 1 | 0

Seven records picked at random from the list so far, as already listed:
SMILES | NPYLR7 agonist | NPYLR7 agonist max-min
CC(=O)N1CCN(C(=S)NC(=O)C23CC4CC(CC(C4)C2)C3)CC1 | -2 | -3
CCN(CC)CCCNC(=O)C(C)n1nc(C)n2c(cc3occc32)c1=O (stereo unspecified) | 7 | 2
CC1(C(=O)NS(=O)(=O)c2ccc(C#N)cc2)CCN1C(=O)Cc1cc(F)ccc1F (stereo unspecified) | 5 | 3
O=C(Cn1c(=O)[nH]c2c(-c3ccccc3F)c[nH]c2c1=O)NCCCc1ccccc1 | -3 | -3
CCn1cc(-c2c(-c3ccccc3)ncn2Cc2c(C)noc2C)cn1 | -2 | -3
Cc1nc(-c2ccccc2)nc(N2CCN(C(=O)c3ccco3)CC2)c1Cc1c(F)cccc1Cl | 1 | 8
COc1ccc(OC)c(N2C3=[N+](CCCS3)CC2(O)c2ccc(C)cc2)c1 (stereo unspecified) | 6&4 | 2&2

(more compounds)
SMILES | NPYLR7 agonist | NPYLR7 agonist max-min
COCC(=O)Nc1ccc(Nc2ccc(-n3cccn3)nn2)cc1 | -4 | -11
Cc1cc(C(F)(F)F)nn1CC(=O)N(C)C1CCCCC1 | -5 | -10
CC1CCc2nc(NC(=O)Cn3cnc4ccccc4c3=O)sc2C1 (stereo unspecified) | 8 | 9
Cc1nccn1CC1CCCN(Cc2cccc(-c3ccccn3)c2)C1 (stereo unspecified) | 11 | 11
CCCCOC(=O)C1=C(C)NC2=C(C(=O)CCC2)C1c1ccc(Cl)cc1Cl (stereo unspecified) | -4 | -9
CCc1nc2ccc(C(=O)Nc3ccc4c(c3)CCN4C(C)=O)cn2c1N(CC)CCN(C)C | -1 | 0
Cc1sc2nc(N)sc(=O)c2c1C | 0&5 | -3&3
CC(C)CCn1c(=O)c2c(nc3n2CCN3c2ccc(F)cc2)n(C)c1=O | 1 | -1
O=C(NCc1cccnc1)c1cc(S(=O)(=O)N2CCSCC2)c[nH]1 | 10 | 7
COc1cccc(-c2cc(C(=O)N3CCN(C/C=C/c4ccccc4)CC3)n3nc(C(C)(C)C)cc3n2)c1 | 12 | 14
COc1ccccc1Oc1cc(C)nc(SCc2ccccc2Cl)n1 | -12 | -11
Cc1nc2sc3c(N4CCCCC4)ncnc3c2c2c1COC(C)(C)C2 | -5 | -4
O=C(Nc1ccc(Cc2ccncc2)cc1)C1CCC(N2C(=O)C3C4C=CC(C4)C3C2=O)CC1 (stereo unspecified) | -1 | 14
CC(C)Cc1nc(Cn2nnn(-c3ccccc3)c2=O)no1 | 3 | 1
NCC1CN(C(=O)Cc2ccncc2)CCO1 (stereo unspecified) | -3 | -2
O=C(CCC(=O)Nc1ccc(C(=O)O)cc1)N/N=C\c1coc2ccccc2c1=O | 3 | 2
COc1cccc(CN(C(=O)c2cccs2)C2CC2)c1OCc1nc(CO)cs1 | -4 | -1
CCOC(=O)c1cc(-c2cccc(NC(=O)c3cc(Cl)nc(Cl)c3)c2)n(-c2ccccc2C)n1 | 5 | 2
c1ccc2c(c1)nc(N1CCN(C3CCCCC3)CC1)c1nncn12 | -6 | -6
O=C1NC(Cc2ccccc2)C(=O)N1Cc1ncc(-c2cccs2)o1 (stereo unspecified) | 4 | 1
Cc1nc(NC(=O)NCc2cccc(C(F)(F)F)c2)nn1C | 6 | -3
C=CCc1cccc2cc(C(=O)Nc3ccccc3F)c(=O)oc12 | -3 | -8
COCCN(Cc1ccc(OCc2nc(CO)cs2)cc1)C(=O)C1CCCC1 | 13 | 21
N#C/C(=C\N1CCN(Cc2ccccc2)CC1)C(=O)NCc1ccccc1 | 6 | 4
CCN(CC)c1cccc(OCC2CN(C(=O)c3cc(C)ccc3Cl)CCO2)c1 (stereo unspecified) | -10 | -5
Cc1ccc(C(=O)NCCc2cc3ccc(C)c(C)c3[nH]c2=O)cc1 | 3 | -1
CCCCCCCC1OC1CC#CC#CC(O)CC (stereo unspecified) | 21 | 15
CC1=C(C)C(=O)C(NCC2CCCO2)=CC1=O (stereo unspecified) | 2 | 0
Cc1nc(-n2nc(-c3cccs3)cc2NC(=O)c2cc3ccccc3o2)[nH]c(=O)c1C | 7 | 4
C(=NNC1=NCCCCC1)c1ccc2c(c1)OCCO2 | 6 | 4
COc1ccc(CN2CCNC(=O)C2CC(=O)N2CCC(OC)CC2)c(OC)c1 (stereo unspecified) | 3 | -2
COc1cccc(-c2nc3ccc(C(=O)NCC4CCCCO4)cc3o2)c1 (stereo unspecified) | 17 | 8
Cc1cc(N2CCN(C)CC2)n2nc(C)c(-c3ccccc3Cl)c2n1 | 2 | 10
O=C1C2=C(CCC2)C(=O)N1CC1COc2ccccc2O1 (stereo unspecified) | -7 | -15
COC(=O)C1CCN(c2cc(=O)n(C3CCCCC3)c(=O)[nH]2)CC1 | -1 | 6
Cc1cc2nnc(Sc3ncccn3)n2c2ccccc12 | 11 | 10
O=S(=O)(c1cccs1)N1CCC2(CC1)OCCO2 | -1 | -2
Cc1cc(N2CCCC2)nc(SCc2ccc(C(=O)NCc3ccco3)cc2)n1 | -4 | -2
CC/C=C\CCC1CC(=O)Nc2cc(OCC(=O)O)ccc21 (stereo unspecified) | 6 | 4
CC(CNc1nc2c(-c3cccc(F)c3)nnn2c2ccccc12)c1ccccc1 (stereo unspecified) | -7 | -10
COC(=O)c1cc(F)ccc1CN(C)CC1CCCO1 (stereo unspecified) | 4 | 2
CCOC(=O)N1CCCN(Cc2ccc(F)cc2)C(C(C)C)C1 (stereo unspecified) | -3 | -3
CCOc1c(C)cnc2c1c(=O)n(Cc1ccccn1)c(=O)n2C | 0 | -1
CC(C)CN(C(=O)Cc1n[nH]c(=O)c2ccccc12)c1nc2ccccc2s1 | 6 | 0
CCOc1ccc2nc(N(Cc3cccnc3)C(=O)c3ccco3)sc2c1 | -13 | -14
Cc1cc(C)nc(NS(=O)(=O)c2ccc(NC(=O)CCN3C(=O)c4ccccc4C3=O)cc2)n1 | 6 | 0
NC(=O)c1ccc(CN(C2CC2)C2CCc3ccccc32)cc1 (stereo unspecified) | 0 | -2
COc1cccc2cc(-c3nc4ccccc4[nH]3)c(=Nc3ccc(F)cc3)oc12 | 5 | 3
CCOC(=O)Cn1nnc([N+](=O)[O-])n1 | 16 | 10
O=C(COC(=O)CCc1c[nH]c2ccccc12)NC12CC3CC(CC(C3)C1)C2 | 7 | 2
CCc1nc(C)ccc1OCC(=O)N1CCc2c([nH]c3ccccc23)C1c1ccccn1 (stereo unspecified) | -12 | -18
COc1ccc(CN(CC(C)C)C(=O)c2cccnc2C)cc1 | 25 | 11
Cc1ccccc1-n1nc2c(c1NC(=O)/C=C\c1ccc3c(c1)OCO3)CS(=O)(=O)C2 | -3 | -3
CC(C)(C)c1ccc(-n2c(=O)[nH]c3c(C(N)=O)nc(-c4ccccc4)nc32)cc1 | -3 | -7
Cc1cc(C)n2c(NC(C)(C)CC(C)(C)C)c(-c3ccccn3)nc2c1 | 3 | 5
Cc1ccccc1Oc1ncccc1CNC(=O)c1c(F)cccc1Cl | 1 | -2
CC(C)c1nc(CC2NC(=O)c3ccccc32)n(-c2ccccn2)n1 (stereo unspecified) | 11 | -6
CCC12CC3CC(O)(C1)CC(C(=O)NCc1nc4ccccc4[nH]1)(C3)C2 (stereo unspecified) | 1 | -1
O=c1cc(CNc2ccc(F)cc2F)c2cc3c(cc2o1)CCC3 | -3 | -1
O=C(NCCN1CCN(C(=O)c2ccc(Br)cc2)CC1)C(=O)Nc1ccc(F)cc1 | -3 | 0
Further structures:
SMILES | NPYLR7 agonist | NPYLR7 agonist max-min
S=C(Cc1ccc2c(c1)CCCC2)N1CCOCC1 | 0 | -1
CC1(C(=O)NCc2ccc3c(c2)OCO3)CCN1Cc1ccc(-c2ccccn2)cc1 (stereo unspecified) | 7 | -1
CC(C)(C)CC(=O)N[C@H]1C[C@H]2C(=O)Nc3ccccc3C(=O)N2C1 | -10 | -18
CCOC(=O)C1=C(C)N=c2s/c(=C\c3ccc(-c4ccc(Cl)cc4)o3)c(=O)n2C1c1ccc(OC)cc1 (stereo unspecified) | -2 | 1
Fc1ccc(Cc2nsc(NCc3cccc(C(F)(F)F)c3)n2)cc1 | 3 | 12
